Compound activity as filed in PubChem.
MT1-MMP reporter: MT1-MMP gene expression reporter suppression – cell-based, luciferase reporter, luminescence (AID 618); 87,000 tested, 0.62% active; MT1-MMP promoter luciferase reporter cells, luminescence; calls from a first round at 10 µM; hits with a dose series show EC50 in µM;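 active means over half of the reporter light lost at 10 µM or EC50 under 50 µM; inactive means the rest and hits that failed the dose series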;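 further: actives suppress MT1-MMP promoter-driven transcription so potencies describe inhibitors; HT1080 fibrosarcoma cells; overnight exposure; toxic or luciferase-blocking compounds were not removed from the actives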
Hsc70 ATP site: Hsc70 inhibitors, probe displacement, primary screen, biochemical, fluorescence polarization (AID 568); Hsc70 fluorescence polarization, probe displacement; higher % means a stronger effect; strong numbers were not always called active; one-dose displacement, % at 20 µM; IC50 in µM for titrated hits; 83,000 tested, under 10 active;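 active means displacement above 50% without optical interference and an IC50 on retest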;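 further: ATPase domain with a fluorescein-tagged ATP probe; 0% = vehicle and 100% = excess ADP; read after one hour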
WNV NS2B-NS3 inh: inhibitors of West Nile virus NS2B-NS3 protease; P06935; 65,000 tested, 0.18% active; z-score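 (tested at a level between 10 and 100 µM)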; AID 577; WNV NS2B-NS3 protease, fluorogenic substrate Ex360/Em465; active compounds read low;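 active means z-score at -3 or under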;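 further: score is relative to mean and spread of the compound wells of a plate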
Target sequence (P06935 1371-1501 limits assumed): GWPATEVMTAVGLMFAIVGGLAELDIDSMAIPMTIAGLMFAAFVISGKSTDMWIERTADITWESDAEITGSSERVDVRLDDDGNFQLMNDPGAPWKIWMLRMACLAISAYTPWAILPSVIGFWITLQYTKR
Target sequence (P06935 1502-1679 limits assumed): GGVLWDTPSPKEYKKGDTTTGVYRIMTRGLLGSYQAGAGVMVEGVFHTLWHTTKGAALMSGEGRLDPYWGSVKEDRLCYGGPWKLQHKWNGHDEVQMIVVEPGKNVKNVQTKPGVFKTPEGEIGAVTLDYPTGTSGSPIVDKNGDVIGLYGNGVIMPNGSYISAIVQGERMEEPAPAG
* hit, by the source's call; i = inactive; / = not tested or not shown.

> Cc1ccc(CCNC(=O)C2CCCN(S(=O)(=O)c3cccc4nsnc34)C2)cc1 (stereo unspecified)
- MT1-MMP reporter: i
- Hsc70 ATP site: 2.8%
- WNV NS2B-NS3 inh: -0.3

> CC(=O)c1cccc(NC(=O)Nc2cccnc2)c1
- MT1-MMP reporter: i
- Hsc70 ATP site: 0.9%
- WNV NS2B-NS3 inh: -2.5

> O=C1c2ccccc2C(=O)N1CCCn1nnc(-c2ccc(N3CCOCC3)cc2)n1
- MT1-MMP reporter: i
- Hsc70 ATP site: 2.4%
- WNV NS2B-NS3 inh: 0.32

> Cc1ccccc1-c1noc(-c2ccc(O)cc2)n1
- MT1-MMP reporter: i
- Hsc70 ATP site: -3.5%
- WNV NS2B-NS3 inh: -1.5

> COc1ccccc1C(=O)NCCN1CCN(C(=O)c2ccccc2OC)CC1
- MT1-MMP reporter: i
- Hsc70 ATP site: 7.2%
- WNV NS2B-NS3 inh: -0.92

> O=C1CCc2cc(S(=O)(=O)N3CCC(C(=O)Nc4nccs4)CC3)ccc2N1
- MT1-MMP reporter: i
- Hsc70 ATP site: -5.8%
- WNV NS2B-NS3 inh: 0.13

> CCOC(=O)c1ccccc1NC(=O)Cc1ccccc1OC
- MT1-MMP reporter: i
- Hsc70 ATP site: 3.0%
- WNV NS2B-NS3 inh: /

> COc1cccc2[nH]c3c(N4CCCC(C)C4)ncnc3c12 (stereo unspecified)
- MT1-MMP reporter: i
- Hsc70 ATP site: 0.5%
- WNV NS2B-NS3 inh: 0.38

> CCOc1ccc2c(c1)c1nnc(SCC(=O)N3CCC(C)CC3)nc1n2C
- MT1-MMP reporter: i
- Hsc70 ATP site: 2.4%
- WNV NS2B-NS3 inh: 1.3

> Cc1csc(SCCN2C(=O)c3ccccc3C2=O)n1
- MT1-MMP reporter: i
- Hsc70 ATP site: 3.2%
- WNV NS2B-NS3 inh: 1.3

> Cc1c2c(nc3nc4ccccc4n13)CCCC2=O
- MT1-MMP reporter: i
- Hsc70 ATP site: 5.4%
- WNV NS2B-NS3 inh: 0.26

> CCS(=O)(=O)N1Cc2ccccc2CC1C(=O)N1CCN(c2ccccc2)CC1 (stereo unspecified)
- MT1-MMP reporter: i
- Hsc70 ATP site: -10%
- WNV NS2B-NS3 inh: -1

> CCCCOc1ccccc1C1NC(=O)NC(C)=C1C(=O)OCCOC (stereo unspecified)
- MT1-MMP reporter: i
- Hsc70 ATP site: 2.5%
- WNV NS2B-NS3 inh: -0.5

> Cc1nc(COC(=O)c2ccc(CO)cc2)cs1
- MT1-MMP reporter: i
- Hsc70 ATP site: 3.0%
- WNV NS2B-NS3 inh: 0.74

> Cc1cc(C)cc(OCc2nnc(SCC(=O)c3ccccc3)o2)c1
- MT1-MMP reporter: i
- Hsc70 ATP site: 4.7%
- WNV NS2B-NS3 inh: -0.52

> COCCn1c(N)c(C(=O)OCc2ccccc2)c2nc3ccccc3nc21
- MT1-MMP reporter: i
- Hsc70 ATP site: 2.6%
- WNV NS2B-NS3 inh: 0.35

> CN(CC(=O)O/N=C(\N)c1cccc([N+](=O)[O-])c1)S(=O)(=O)c1ccccc1
- MT1-MMP reporter: i
- Hsc70 ATP site: 2.4%
- WNV NS2B-NS3 inh: /

> O=C(CN1C(=O)c2ccccc2S1(=O)=O)NCCSC1CCCCC1
- MT1-MMP reporter: i
- Hsc70 ATP site: 4.6%
- WNV NS2B-NS3 inh: 1.1

> CCc1cc(OCCCSc2nc(C)cc(=O)[nH]2)ccc1Cl
- MT1-MMP reporter: i
- Hsc70 ATP site: 0.4%
- WNV NS2B-NS3 inh: /

> CCCCOCP(=O)(CCCC)COCCCC
- MT1-MMP reporter: i
- Hsc70 ATP site: -2.1%
- WNV NS2B-NS3 inh: -1

> N=C1C(c2ccccc2)=C(O)CN1c1ccc2c(c1)OCO2
- MT1-MMP reporter: i
- Hsc70 ATP site: 3.6%
- WNV NS2B-NS3 inh: 1.9

> O=C(NCc1ccco1)c1noc2c1CCCC2
- MT1-MMP reporter: i
- Hsc70 ATP site: -6.3%
- WNV NS2B-NS3 inh: -0.72

> CC(=O)N1CCc2cc(S(=O)(=O)CCC(=O)NCc3cccs3)ccc21
- MT1-MMP reporter: i
- Hsc70 ATP site: -3.5%
- WNV NS2B-NS3 inh: -0.23

> COc1ccc(-c2nc(C#N)c(N3CCC(C(N)=O)CC3)o2)cc1OC
- MT1-MMP reporter: i
- Hsc70 ATP site: 2.6%
- WNV NS2B-NS3 inh: /

> COc1cc(C(=O)Oc2ccccc2)ccc1OCc1c(C)noc1C
- MT1-MMP reporter: i
- Hsc70 ATP site: -4.8%
- WNV NS2B-NS3 inh: 0.57

> N[C@@H](Cc1ccc(O)c(I)c1)C(=O)O
- MT1-MMP reporter: i
- Hsc70 ATP site: -6.7%
- WNV NS2B-NS3 inh: -2.7

> COc1ccc(S(=O)(=O)N2CCC(C(=O)Nc3cccc(C(C)=O)c3)CC2)cc1
- MT1-MMP reporter: i
- Hsc70 ATP site: -0.6%
- WNV NS2B-NS3 inh: /

> Cc1cc(=O)oc2cc(OCC(=O)NCCCN3CCOCC3)ccc12
- MT1-MMP reporter: i
- Hsc70 ATP site: -5.4%
- WNV NS2B-NS3 inh: 0.99

> CSc1ccc(C2C3(C#N)C(N)=NC4(OCCO4)C23C#N)cc1 (stereo unspecified)
- MT1-MMP reporter: i
- Hsc70 ATP site: 5.7%
- WNV NS2B-NS3 inh: -0.17

> Cc1ccc(C(C)C)c(OCC(=O)Nc2ccc(Cl)cn2)c1
- MT1-MMP reporter: i
- Hsc70 ATP site: -0.8%
- WNV NS2B-NS3 inh: 0.91

> COc1ccc2c(c1)Cc1sc(NC(=O)c3ccco3)nc1-2
- MT1-MMP reporter: i
- Hsc70 ATP site: 4.6%
- WNV NS2B-NS3 inh: /

> Nc1nnc(COc2ccccc2)s1
- MT1-MMP reporter: i
- Hsc70 ATP site: -0.6%
- WNV NS2B-NS3 inh: /

> c1coc(CN=C2NC(=NCc3ccco3)c3ccccc32)c1
- MT1-MMP reporter: i
- Hsc70 ATP site: -0.3%
- WNV NS2B-NS3 inh: 0.13

> CC(=O)c1ccc(NS(=O)(=O)Cc2ccccc2)cc1
- MT1-MMP reporter: i
- Hsc70 ATP site: -0.7%
- WNV NS2B-NS3 inh: -0.83

> Oc1ccc(-c2cccc(-c3ccc(O)cc3)n2)cc1
- MT1-MMP reporter: i
- Hsc70 ATP site: 0.4%
- WNV NS2B-NS3 inh: -0.46

> CC1CCCC(C)N1C(=O)C1CC(c2ccc(F)cc2)=NO1 (stereo unspecified)
- MT1-MMP reporter: i
- Hsc70 ATP site: -2.0%
- WNV NS2B-NS3 inh: 0.4

> Cc1ccc(-n2nnnc2SCC(=O)Nc2ccc3c(c2)OCCO3)cc1C
- MT1-MMP reporter: i
- Hsc70 ATP site: 3.1%
- WNV NS2B-NS3 inh: /

> O=C1NCCc2c1[nH]c1ccccc21
- MT1-MMP reporter: i
- Hsc70 ATP site: -0.2%
- WNV NS2B-NS3 inh: /

> CCOC(=O)N1CCC2(CC1)C(C#N)=C(N)Oc1n[nH]c(C)c12
- MT1-MMP reporter: i
- Hsc70 ATP site: -3.6%
- WNV NS2B-NS3 inh: /

> CCCCOc1ccccc1-c1cc(C(=O)O)[nH]n1
- MT1-MMP reporter: i
- Hsc70 ATP site: -1.4%
- WNV NS2B-NS3 inh: 0.1

> O=C(c1cc2ccccn2n1)N1CCN(c2ccccn2)CC1
- MT1-MMP reporter: i
- Hsc70 ATP site: 4.8%
- WNV NS2B-NS3 inh: 0.68

> O=C(OCc1ccccc1)c1cccc(-c2nnn(Cc3ccccc3)n2)c1
- MT1-MMP reporter: i
- Hsc70 ATP site: -2.3%
- WNV NS2B-NS3 inh: /

> Cn1c(SCc2ccc(Br)cc2)nnc1-c1ccncc1
- MT1-MMP reporter: i
- Hsc70 ATP site: -6.9%
- WNV NS2B-NS3 inh: -0.31

> CCOc1cc(C(=O)N2CCOCC2)ccc1OCc1ccccc1
- MT1-MMP reporter: i
- Hsc70 ATP site: 6.7%
- WNV NS2B-NS3 inh: 0.29

> Cn1c(=O)oc2cc(S(=O)(=O)NCc3ccco3)ccc21
- MT1-MMP reporter: i
- Hsc70 ATP site: 1.9%
- WNV NS2B-NS3 inh: 0.5

> Cc1ccccc1-n1c(=O)/c(=C\c2ccco2)s/c1=C(/C#N)C(=O)Nc1ccccc1
- MT1-MMP reporter: i
- Hsc70 ATP site: -5.9%
- WNV NS2B-NS3 inh: -1.6

> CC(C)N(C(=O)CSc1nc2ccccc2n1Cc1ccccc1)C(C)C
- MT1-MMP reporter: i
- Hsc70 ATP site: -7.0%
- WNV NS2B-NS3 inh: /

> CCN1CCCC1CNC(=O)CS(=O)(=O)Cc1nc(-c2ccccc2C)oc1C (stereo unspecified)
- MT1-MMP reporter: i
- Hsc70 ATP site: -3.2%
- WNV NS2B-NS3 inh: -0.74

> O=C(NCc1cccnc1)c1cccc(S(=O)(=O)N2CCCCC2)c1
- MT1-MMP reporter: i
- Hsc70 ATP site: 4.6%
- WNV NS2B-NS3 inh: -0.91

> CCNC(=O)N1c2ccc(OC)cc2C(C)=CC1(C)C
- MT1-MMP reporter: i
- Hsc70 ATP site: -1.4%
- WNV NS2B-NS3 inh: 1.3

> Cc1ccccc1-c1nc(CS(=O)(=O)CC(=O)NCCCN2C(C)CCCC2C)c(C)o1 (stereo unspecified)
- MT1-MMP reporter: i
- Hsc70 ATP site: 2.0%
- WNV NS2B-NS3 inh: -1.8

> CCCCn1c(Cc2ccccc2)nnc1SCC(=O)N1CCOCC1
- MT1-MMP reporter: i
- Hsc70 ATP site: -1.4%
- WNV NS2B-NS3 inh: /

> Nc1c(NCCN2CCOCC2)c2ccccc2oc1=O
- MT1-MMP reporter: i
- Hsc70 ATP site: -1.9%
- WNV NS2B-NS3 inh: -0.4

> Cc1ccccc1OCc1nc2ccccc2c(=O)n1NC(=O)c1ccco1
- MT1-MMP reporter: i
- Hsc70 ATP site: -1.0%
- WNV NS2B-NS3 inh: -0.35

> COc1cccc(C2=NO[C@@H]3C(=O)N(c4ccc5c(c4)OCCO5)C(=O)[C@H]23)c1OC
- MT1-MMP reporter: i
- Hsc70 ATP site: 0.2%
- WNV NS2B-NS3 inh: -0.5

> CS(=O)(=O)Nc1cccc(C(=O)CC2(O)C(=O)Nc3ccccc32)c1 (stereo unspecified)
- MT1-MMP reporter: i
- Hsc70 ATP site: 0.4%
- WNV NS2B-NS3 inh: -0.22

> Cc1ccc(Cn2ncc3c(NCCCN4CCOCC4)ncnc32)cc1
- MT1-MMP reporter: i
- Hsc70 ATP site: 0.9%
- WNV NS2B-NS3 inh: -0.56

> CCc1nc(NCc2ccco2)c2oc3ccccc3c2n1
- MT1-MMP reporter: i
- Hsc70 ATP site: -5.6%
- WNV NS2B-NS3 inh: -0.51

> CC1CCN(C(=O)CCCOc2cc(=O)n(C)c3ccccc23)CC1
- MT1-MMP reporter: i
- Hsc70 ATP site: -2.6%
- WNV NS2B-NS3 inh: 0.31

> CN(CC(=O)N1CCCCCC1)S(=O)(=O)c1cccc2cccnc12
- MT1-MMP reporter: i
- Hsc70 ATP site: 1.4%
- WNV NS2B-NS3 inh: -0.2

> O=C(CSCc1cccc(Br)c1)N1CCOCC1
- MT1-MMP reporter: i
- Hsc70 ATP site: 2.6%
- WNV NS2B-NS3 inh: -0.06

> CCOc1ccc(CSC2=NCCN2)cc1Cl
- MT1-MMP reporter: i
- Hsc70 ATP site: 0.5%
- WNV NS2B-NS3 inh: -0.28

Five records drawn at random from those above:
> CCc1nc(NCc2ccco2)c2oc3ccccc3c2n1
- MT1-MMP reporter: i
- Hsc70 ATP site: -5.6%
- WNV NS2B-NS3 inh: -0.51

> CCOc1ccc(CSC2=NCCN2)cc1Cl
- MT1-MMP reporter: i
- Hsc70 ATP site: 0.5%
- WNV NS2B-NS3 inh: -0.28

> CN(CC(=O)N1CCCCCC1)S(=O)(=O)c1cccc2cccnc12
- MT1-MMP reporter: i
- Hsc70 ATP site: 1.4%
- WNV NS2B-NS3 inh: -0.2

> CCCCn1c(Cc2ccccc2)nnc1SCC(=O)N1CCOCC1
- MT1-MMP reporter: i
- Hsc70 ATP site: -1.4%
- WNV NS2B-NS3 inh: /

> Cc1ccc(Cn2ncc3c(NCCCN4CCOCC4)ncnc32)cc1
- MT1-MMP reporter: i
- Hsc70 ATP site: 0.9%
- WNV NS2B-NS3 inh: -0.56

Quoted from above (six entries):
> Nc1c(NCCN2CCOCC2)c2ccccc2oc1=O
- MT1-MMP reporter: i
- Hsc70 ATP site: -1.9%
- WNV NS2B-NS3 inh: -0.4

> Cc1ccccc1OCc1nc2ccccc2c(=O)n1NC(=O)c1ccco1
- MT1-MMP reporter: i
- Hsc70 ATP site: -1.0%
- WNV NS2B-NS3 inh: -0.35

> COc1cccc(C2=NO[C@@H]3C(=O)N(c4ccc5c(c4)OCCO5)C(=O)[C@H]23)c1OC
- MT1-MMP reporter: i
- Hsc70 ATP site: 0.2%
- WNV NS2B-NS3 inh: -0.5

> CS(=O)(=O)Nc1cccc(C(=O)CC2(O)C(=O)Nc3ccccc32)c1 (stereo unspecified)
- MT1-MMP reporter: i
- Hsc70 ATP site: 0.4%
- WNV NS2B-NS3 inh: -0.22

> Cc1ccc(Cn2ncc3c(NCCCN4CCOCC4)ncnc32)cc1
- MT1-MMP reporter: i
- Hsc70 ATP site: 0.9%
- WNV NS2B-NS3 inh: -0.56

> CCc1nc(NCc2ccco2)c2oc3ccccc3c2n1
- MT1-MMP reporter: i
- Hsc70 ATP site: -5.6%
- WNV NS2B-NS3 inh: -0.51
